Assay outcomes as filed in PubChem.
NPYLR7 agonist: agonists of mosquito NPYLR7 receptor, primary screen, cell-based, Aedes aegypti, calcium fluorescence, mosquito biting behavior | HEK293T NPYLR7/Galpha15, GCaMP6s calcium fluorescence | 0.15% of 270,000 active | activation, % at 10 µM | Aedes aegypti neuropeptide Y-like receptor 7 (NPYLR7); in the data active = activation above about 40%;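 note: 0% = vehicle and 100% = reference agonist at the receptor; some compounds past the cut are filed as inactive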
NPYLR7 agonist max-min: also measured in NPYLR7 agonist; calls as there; activation, %; measured here: Max-Min RFU normalised activation; some inactives read as strong as hits;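 span of the calcium signal over five minutes; 0% = vehicle and 100% = native peptide agonist; compound fluorescence can raise it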
Active calls of the source: *. This is a subset. The share of hits here may be higher or lower than overall.

Screens in order – NPYLR7 agonist max-min, NPYLR7 agonist
- CCCCCCc1ccc(C(=O)N2CCSC2c2cccs2)cc1 (configuration not stated)
 : 18.3, 13.2
- Cc1cc(=O)c(C(=O)N2CCOC(c3ccc(Cl)c(Cl)c3)C2)c(C)[nH]1 (configuration not stated)
 : -0.9, -0.3
- COC(=O)c1c(C)[nH]c(C(=O)C(C)OC(=O)c2ccco2)c1C (configuration not stated)
 : 12.3, 5.0
- Cc1nn(C)c(C)c1-c1cc(C(=O)N2C[C@H]3CC=CC[C@H]3C2)n(C)n1
 : -0.3, 4.5
- OCC1(Cc2cccc(F)c2)CCN(Cc2ccc3c(c2)OCCO3)CC1
 : -9.1, -6.9
- CCN(CC)S(=O)(=O)c1ccc(CN2C(=O)C3(CC(=O)N(CCC(F)(F)F)C3=O)c3ccccc32)cc1 (configuration not stated)
 : -14.1, -6.7
- COc1ccc(-c2c(C)nn(-c3ccccc3)c2C)c(C(=O)NCC2COC(C)(C)O2)c1 (configuration not stated)
 : -13.9, -6.5
- COc1cccc(C(CN2CCN(C(=O)c3ccc(Cl)cc3)CC2)OCc2ccc(C#N)cc2)c1 (configuration not stated)
 : 0.1, 4.0
- COc1c[nH]c(CN2CCc3onc(-c4ccc(F)c(F)c4)c3C2)cc1=O
 : -1.1, 0.1
- COc1cccc(Cn2c(=O)c(C(=O)N3CCCC3)nn(-c3cc(C)cc(C)c3)c2=O)c1
 : 2.5, -2.6
- COc1ccc(Cc2noc(CN(C)Cc3sc4ccccc4c3Cl)n2)cc1OC
 : 0.6, 11.2
- COc1ccc(C(=O)OCCCN=C2NS(=O)(=O)c3ccccc32)cc1OC
 : 14.1, 12.3
- N#CC(=Cc1cccnc1)c1nc2ccccc2o1
 : 13.0, 14.9
- CCOc1ccc(S(=O)(=O)Nc2ccccc2F)cc1
 : 0.8, 0.7
- CC1CCCCC12NC(=O)N(CC(=O)N(C)C)C2=O (configuration not stated)
 : 4.9, 2.4
- COc1ccccc1C1NC(=O)N(C)C2=C1C(=O)N(C(C)C(=O)Nc1ccc(C)c(C)c1)C2 (configuration not stated)
 : 3.7, -0.9
- CCc1sc(C(=O)N2CCCC(C(=O)O)C2)cc1C (configuration not stated)
 : 6.9, 2.1
- CC1=C(C(=O)OCCc2ccccc2)C(c2cccc(Cl)c2Cl)NC(=O)N1 (configuration not stated)
 : -5.9, -1.3
- Oc1cccc(-c2nccn2-c2cccc(-c3ccn[nH]3)c2)c1
 : 10.5, 27.6
- CC1CC1C(=O)Nc1ccc(F)cc1C(=O)N(C)c1ccccc1 (configuration not stated)
 : -3.5, 0.1
- Cc1ccc(NC2=NS(=O)(=O)c3ccccc32)c(C)c1
 : -19.1, -14.5
- O=C(NC1CC(=O)N(c2ccc(F)cc2)C1)NN1CCOCC1 (configuration not stated)
 : 1.0, 3.3
- Cc1ccc(S(=O)(=O)/C(C#N)=C/N2CCN(Cc3ccc4c(c3)OCO4)CC2)cc1C
 : -3.8, -3.8
- C=CCN(CC(=O)N1CCc2sccc2C1COc1cccc(C)c1)CC(O)Cc1ccccc1 (configuration not stated)
 : 16.9, 17.9
- CCOc1ccc(Cl)c(C(=O)NC2(C#N)CCSC2)n1 (configuration not stated)
 : 4.0, 0.5
- Cc1cc(NC(=O)c2ccccc2F)no1
 : -5.9, -3.0
- CCN1CCN(S(=O)(=O)c2cccc(NC(=O)c3cnccn3)c2)CC1
 : 0.2, 2.1
- Cn1c(=O)c2c(ncn2CCOC(=O)N2CCN(c3ccccn3)CC2)n(C)c1=O
 : -2.2, -0.1
- CCc1noc(CN(CC)C(=O)c2cnn(CC)c2C)n1
 : 5.0, 5.6
- Cc1cc(-c2cccc(O)c2)nc(-c2ccccc2O)n1
 : 1.5, 1.6
- Cc1cc(C)c(NC(=O)C(=O)c2c(C)[nH]c3ccccc23)c(C)c1
 : -0.7, -2.1
- COc1cccc(-c2nnc(NC(=O)C(Cc3ccccc3)NC(=O)NCc3ccccc3)s2)c1 (configuration not stated)
 : 13.8, 5.2
- COC(=O)c1cccc(-c2cc(Cl)c3c(c2)CC(CNC(=O)CCn2ccc(C)n2)O3)c1 (configuration not stated)
 : 8.0, 18.5
- COc1cc(NC(=O)CCN2C(=O)C(C)Oc3ccccc32)cc(OC)c1OC (configuration not stated)
 : -6.4, -3.4
- CC1=CC(=C(C#N)C#N)C=C(C)N1CCN(C)C
 : -3.0, 0.7
- COc1ccc(OC)c2[nH]c(=O)c(CCNC(=O)CCC3CCCC3)cc12
 : 31.7, 0.6
- c1ccc2c(c1)nc(N1CCOCC1)c1nnnn12
 : 12.4, 18.7
- Cc1ccc(F)cc1C(=O)N1CCN(c2nc3nccc(-c4ccc(Cl)c(Cl)c4)n3n2)CC1
 : 14.5, 18.2
- COc1ccccc1NC(=O)CSc1nnc(C)n1-n1cccc1
 : -1.1, 0.7
- COCCn1c(N2CCOCC2)nc2c1c(=O)[nH]c(=O)n2C
 : -5.3, -3.9
- CC1(C)C2(C(=O)N3CCN(c4nccc(-c5ccc(N6CCOCC6)cc5)n4)CC3)CC[C@@]1(C)C(=O)O2
 : 1.7, 7.3
- COc1ccccc1-c1cc(C(=O)N2CCN(C(C)=O)CC2)n2nc(-c3ccc(Cl)cc3)cc2n1
 : -2.9, -12.0
- Cc1ccccc1Oc1cc(N2CCN(C(=O)Cc3ccccc3)C(C)C2)ncn1 (configuration not stated)
 : -5.8, -10.9
- CC(=O)Nc1cccc(C(=O)CSc2nnc(CCn3ccc(=O)[nH]c3=O)o2)c1
 : -3.8, -2.7
- O=C1Nc2ccccc2C1=C1CCN(C(=O)Nc2ccccn2)CC1
 : 0.5, 0.5
- Cc1ccccc1N1CCN(C2CCCN(C(=O)c3ccc(Cl)c(Cl)c3)C2)CC1 (configuration not stated)
 : 6.9, 2.8
- Cc1nnnn1CC(=O)Nc1ccccc1
 : 10.6, 13.5
- Cc1n(C)c2c3ccccc3sc2[n+]1C
 : -16.1, -13.6
- O=C(Nc1cccs1)N1CCn2cccc2C1c1ccccc1F (configuration not stated)
 : 8.6, 14.6
- Cc1sc(-n2cccc2)c(C(=O)N2CC[C@H]3CC[C@@H](C2)N3)c1C
 : -10.3, -0.1
- CC(C)n1cc(C(=O)N2C[C@H]3OC(=O)N(CCN4CCCCC4)[C@H]3C2)cn1
 : -3.7, 4.1
- O=C1OC(c2ccccc2Br)=N/C1=C\N1CCOCC1
 : -7.1, -4.4
- Cc1cccc(C(C(=O)NC2CCN(S(C)(=O)=O)CC2)N(C)C)c1 (configuration not stated)
 : 1.3, 2.3
- CN(Cc1ncnn1C)C(=O)NCCCc1nc2c(s1)CCCC2
 : -16.9, 1.2
- Cc1nnnn1-c1cccc(C(=O)N2CCNCC2C(=O)N2CCCC2)c1 (configuration not stated)
 : -12.9, -0.6
- Cc1ccc2c(c1)NC(SCC(=O)NC(C)CCc1ccccc1)=NS2(=O)=O (configuration not stated)
 : -9.7, -4.9
- CC(=O)N(C)c1ccc(NC(=O)c2ccc(Cn3cc(Br)cn3)cc2)cc1
 : -8.1, -7.0
- C=C(C)Cn1c(SCC(=O)NCCc2ccccc2)nc2sc3c(c2c1=O)CCC3
 : -0.2, 1.1
- O=C(c1cccs1)N1CCN(c2nc(N3CCOCC3)nc(-n3ccnc3)n2)CC1
 : -18.1, -13.9
- O=C(C1CC(=O)N(c2ccccc2)C1)N1CCN(c2ncnc3c2nnn3-c2ccc(F)cc2)CC1 (configuration not stated)
 : -17.5, -5.3

(list continues)
Screens in order – NPYLR7 agonist max-min, NPYLR7 agonist
- CC(=O)N1CCCC(C(=O)OC(C(=O)Nc2cc(C)cc(C)c2)c2ccccc2)C1 (configuration not stated)
 : -3.5, -2.1
- COC(=O)[C@H](C(C)C)n1c(C)c(C(C)=O)c(C(C)=O)c1C
 : 4.4, 7.1
- Cc1c(CNC(=O)C2(N3CCCCC3)Cc3ccccc3C2)cnn1C
 : 5.5, 6.3
- CCOC(=O)Cn1c(=O)c2c(nc3n2CCN3c2ccc(F)cc2)n(C)c1=O
 : 9.5, 10.5
- COc1ccc(C2Nc3cccc(C)c3C(=O)N2C)cc1O (configuration not stated)
 : 2.0, 1.0
- Cc1ccccc1C1c2ccsc2CCN1CCC(=O)N1CCN(C(=O)Cc2cccs2)CC1 (configuration not stated)
 : -5.4, 6.1
- COCC(C)(O)CNC(=O)C1(c2ccc(F)cc2)CC1 (configuration not stated)
 : -3.6, -1.9
- CCOc1ccc(-c2cc(-c3nc(-c4ccc(OCC)cc4)no3)[nH]n2)cc1
 : -7.2, 5.4
- CCC(C)n1cc(C(=O)NCc2cccc(C)n2)c(=O)c(C(=O)N2CCCCCC2)c1 (configuration not stated)
 : 0.5, 4.1
- O=C(c1csc(CSc2nnc(-c3ccccc3Cl)n2-c2ccccc2Cl)n1)N1CCN(c2ccccc2Cl)CC1
 : 15.7, 10.2
- CCCC(O)CN1CCC(=O)N(CC2CC2)Cc2cc3c(cc21)OCO3 (configuration not stated)
 : 18.5, 11.3
- CC(=O)Nc1ccc(Cl)c(C(=O)N2CCS(=O)(=O)CC2)c1
 : 19.2, 29.6
- COc1ccc(S(=O)(=O)NC(C)c2nnc(SCc3ccc(F)cc3)n2-c2cc(Cl)ccc2C)cc1 (configuration not stated)
 : 2.1, -2.9
- CCOc1cc(C(=O)NCC2CCCN2CC2CCCCC2)ccc1OC (configuration not stated)
 : -7.8, -6.9
- N#Cc1c(NC(=O)CN2CCN(CC(=O)N3CCOCC3)CC2)sc2c1CCC2
 : 7.5, 8.0
- COCCn1c(-c2c[nH]c(C(=O)N3CCCC3)c2)csc1=Nc1ccccc1F
 : 4.2, 5.1
- CN(CCc1ccccc1)c1nc(-c2cccc(F)c2F)nc2ccccc12
 : 9.1, 0.7
- CCOCCOc1nc(-c2ccc(C)cc2)n(-c2ccc(NCC(C)O)cc2)n1 (configuration not stated)
 : -0.2, -0.4
- COCCNC(=O)c1nn(-c2cccc(C)c2)c(=O)n(Cc2ccccc2C)c1=O
 : 16.5, 18.1
- CC(C)CCC1(C2CCN(C(=O)/C=C/c3ccc(Cl)cc3)CC2)NC(=O)N(CCN(C)C)C1=O (configuration not stated)
 : 4.6, 20.4
- Cc1nc2cc(N=CC(C#N)C#N)ccc2n1-c1ccccc1
 : 5.3, 5.3
- CNC(=S)Nn1cnc2ccccc21
 : 9.2, 2.2
- Cc1ccc(CN(C)C(=O)NCc2ccc(-n3cccn3)nc2)c(C)c1
 : 2.2, 4.9
- COc1ccc(CN2CCN(S(=O)(=O)c3cccs3)CC2)cc1
 : 0.9, 3.3
- COCCOC(=O)c1ccc(NC(=O)c2c(-c3ccccc3Cl)noc2C)cc1
 : 4.7, 4.2
- Fc1ccc(NN=Cc2c[nH]c3ccccc23)c(F)c1
 : 5.3, 6.0
- CCOC(=O)C1(CCCc2ccccc2)CCN(C(=O)c2cccc(C)c2)CC1
 : 3.1, 10.7
- CCC#CCN1Cc2ccccc2N(C(=O)c2ccno2)CCC1=O
 : 4.6, -0.2
- COc1cc(OC)cc(-c2nnc(SCC(=O)NCC3CCCO3)n2-c2ccccc2C)c1 (configuration not stated)
 : 8.7, 3.1
- COc1ccccc1-n1ncc2c(C)nnc(SC)c21
 : -11.9, -6.6
- Cc1nccn1C(C)c1nc(C2CC2)nn1-c1cccc2cccnc12 (configuration not stated)
 : -0.8, 1.4
- Cc1onc(-c2ccccc2Cl)c1C(=O)NCC12CC3CCC(CC(C3)C1)C2
 : -14.4, -10.1

Of the compounds above, these have fluorine:
Screens in order – NPYLR7 agonist max-min, NPYLR7 agonist
- OCC1(Cc2cccc(F)c2)CCN(Cc2ccc3c(c2)OCCO3)CC1
 : -9.1, -6.9
- CCN(CC)S(=O)(=O)c1ccc(CN2C(=O)C3(CC(=O)N(CCC(F)(F)F)C3=O)c3ccccc32)cc1 (configuration not stated)
 : -14.1, -6.7
- COc1c[nH]c(CN2CCc3onc(-c4ccc(F)c(F)c4)c3C2)cc1=O
 : -1.1, 0.1
- CCOc1ccc(S(=O)(=O)Nc2ccccc2F)cc1
 : 0.8, 0.7
- CC1CC1C(=O)Nc1ccc(F)cc1C(=O)N(C)c1ccccc1 (configuration not stated)
 : -3.5, 0.1
- O=C(NC1CC(=O)N(c2ccc(F)cc2)C1)NN1CCOCC1 (configuration not stated)
 : 1.0, 3.3
- Cc1cc(NC(=O)c2ccccc2F)no1
 : -5.9, -3.0
- Cc1ccc(F)cc1C(=O)N1CCN(c2nc3nccc(-c4ccc(Cl)c(Cl)c4)n3n2)CC1
 : 14.5, 18.2
- O=C(Nc1cccs1)N1CCn2cccc2C1c1ccccc1F (configuration not stated)
 : 8.6, 14.6
- O=C(C1CC(=O)N(c2ccccc2)C1)N1CCN(c2ncnc3c2nnn3-c2ccc(F)cc2)CC1 (configuration not stated)
 : -17.5, -5.3
- CCOC(=O)Cn1c(=O)c2c(nc3n2CCN3c2ccc(F)cc2)n(C)c1=O
 : 9.5, 10.5
- COCC(C)(O)CNC(=O)C1(c2ccc(F)cc2)CC1 (configuration not stated)
 : -3.6, -1.9
- COc1ccc(S(=O)(=O)NC(C)c2nnc(SCc3ccc(F)cc3)n2-c2cc(Cl)ccc2C)cc1 (configuration not stated)
 : 2.1, -2.9
- COCCn1c(-c2c[nH]c(C(=O)N3CCCC3)c2)csc1=Nc1ccccc1F
 : 4.2, 5.1
- CN(CCc1ccccc1)c1nc(-c2cccc(F)c2F)nc2ccccc12
 : 9.1, 0.7
- Fc1ccc(NN=Cc2c[nH]c3ccccc23)c(F)c1
 : 5.3, 6.0

Some of the entries above in a different format.
mol,NPYLR7 agonist max-min,NPYLR7 agonist
COCCn1c(-c2c[nH]c(C(=O)N3CCCC3)c2)csc1=Nc1ccccc1F,4.2,5.1
CCC(C)n1cc(C(=O)NCc2cccc(C)n2)c(=O)c(C(=O)N2CCCCCC2)c1 (configuration not stated),0.5,4.1

Single entries from the list.
`Cc1cc(NC(=O)c2ccccc2F)no1` in NPYLR7 agonist max-min → -5.9
`CC1CC1C(=O)Nc1ccc(F)cc1C(=O)N(C)c1ccccc1` (configuration not stated) in NPYLR7 agonist → 0.1
